BasE inh – BasE siderophore biosynthesis inhibition | purified BasE, fluorescence polarization binding displacement | inhibition, % (test concentration not listed) | actives 0.1% (n = 84,000);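 active = both replicates above 25% with normal brightness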;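 also: 0% = negative plate control signal and 100% = positive plate control signal; stock transfer was 100 nL into about 30 µL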
KSHV LANA nucl – inhibitors of KSHV LANA binding to nucleosomes | FITC-LANA1-23 / chicken nucleosome fluorescence polarization; hits give low values | z-score (concentration not given with the values) | actives 0.3% (n = 51,000);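 active = both repeat wells score below -2 in polarization z-score versus plate sample wells, excluding overly bright wells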;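 also: 100 nL library stock added to about 30 µL; numbers are from one replicate; some results filed as inactive read as strong as hits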
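Assay system: purified chicken nucleosomes with FITC-labelled LANA N-terminal peptide (1-23) / Probe or stimulus: 50 nM FITC-LANA1-23 probe / Compound dosing: pin-transferred compound, 100 nL / Times: compound with peptide–nucleosome mix 10–45 min at room temperature / Technique: fluorescence polarization, 480 nm excitation, 535 nm parallel and perpendicular emission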
* marks the source's active call; other numbers are inactive results; & = joins results of further samples. Only part of the results is shown. The share of hits here may be higher or lower than overall.

CN1C(=O)CC(c2ccsc2)Sc2ccccc21 (stereo unspecified) was read as BasE inh 3.4.
For c1csc(-c2ncc3ccccn23)c1 the results were BasE inh 14 and KSHV LANA nucl 0.079.
`CCc1ccccc1NC(=O)C=C(C)C` gave BasE inh -1.0 and KSHV LANA nucl -0.11.
`O=C(NCc1ccncc1)c1ccc(CSc2ncn[nH]2)cc1` gave BasE inh 1.9.
NC(N)=N/N=C/c1ccccc1 was read as BasE inh -0.9&0.7 and KSHV LANA nucl -0.77&-1.1.
For CC1(C)Cc2cccc(OCC(=O)OCc3nnc(-c4ccccc4)o3)c2O1 the results were BasE inh 2.5.
C#CCOc1ccccc1C(N)=O was read as BasE inh 0.2.
For O=C(NCC1CCCO1)C1CCN(c2nnc(-n3cccc3)s2)CC1 (stereo unspecified) the results were BasE inh 0.1 and KSHV LANA nucl -0.08.
Screening NS(=O)(=O)c1ccc(NC(=O)CN2CCCC2c2ccc3c(c2)OCCO3)cc1 (stereo unspecified) returned BasE inh -0.9.
Screening CNC(=S)NCc1ccc2c(c1)cc(C)n2C returned BasE inh 0.1 and KSHV LANA nucl 0.033.
`c1ccc(CCNc2nnnn2-c2ccccc2)cc1` gave BasE inh -2.6.
For Cc1noc(C)c1CSc1nnc2ccccn12 the results were BasE inh 0.2.
Screening Cc1nn(C)c(C)c1/C=C/C(=O)Nc1nc2c(s1)CCCC2 returned BasE inh -2.1.
For O=c1c(Cl)c(N2CCCCC2)cnn1C12CC3CC(CC(C3)C1)C2 the results were BasE inh -1.6 and KSHV LANA nucl 0.69.
For CC(Sc1nncn1C(C)C)C(=O)c1c[nH]c2ccccc12 (stereo unspecified) the results were BasE inh -2.8.
Screening CCn1c(C(NC(=O)c2ccc(C)cc2)C(C)C)n[nH]c1=S (stereo unspecified) returned BasE inh 1.7 and KSHV LANA nucl 0.36.
`Cn1c(=O)n(Cc2ccco2)c(=N)c2c3c(sc21)CCCC3` gave BasE inh -0.6 and KSHV LANA nucl 1.2.
`CCOc1ccc(N=C2C(=O)N(c3ccccc3)c3ccccc32)cc1` gave KSHV LANA nucl -1.2.
Cc1ccc(Sc2c(C)[nH]n(C(C)(C)C)c2=O)cc1 was read as BasE inh 1.1.
`Nc1cccc(NC(=O)c2cccc(S(=O)(=O)Nc3cccc(N)c3)c2)c1` gave BasE inh 2.1.
CCOC(=O)c1cc2c(=O)n3ccccc3nc2n(C(C)C)c1=NC(=O)c1c(-c2ccccc2Cl)noc1C was read as BasE inh 7.2 and KSHV LANA nucl -1.
Screening COC(=O)C1C(=O)C2=C(CC1C)Nc1ccccc1NC2c1cc(F)ccc1F (stereo unspecified) returned BasE inh 0.3 and KSHV LANA nucl -0.037.
For O=c1c2ccccc2[nH]c(=S)n1Cc1cccnc1 the results were BasE inh 1.5.
Cn1cc2ccc(N)cc2n1 was read as BasE inh -3.6 and KSHV LANA nucl 0.33.
For CCC(=O)Nc1ccccc1C(=O)NC(C)(C)C the results were BasE inh 1.1 and KSHV LANA nucl 0.13.
Screening O=C(CSc1ccc(-c2ccco2)nn1)c1ccccc1 returned BasE inh 2.0 and KSHV LANA nucl 0.18.
Screening COc1cc(-c2nc(C=Nc3cccc(C(=O)O)c3)c(O)o2)cc(OC)c1OC returned BasE inh 4.8 and KSHV LANA nucl -0.92.
Screening CCOC(=O)c1c(-c2ccccc2)oc2ccc(OC(=O)Cc3n[nH]c(=O)c4ccccc34)cc12 returned BasE inh 5.8.
`CC1=C(c2ccccc2)[N+](=O)C2(CCCC2)N1[O-]` gave BasE inh 2.7.
C[C@@]12C(=O)OC(=O)[C@]1(C)C1CCC2O1 was read as BasE inh 0.1 and KSHV LANA nucl -0.16.

Continued, starting with the last five of the part before.
Screening O=C(CSc1ccc(-c2ccco2)nn1)c1ccccc1 returned BasE inh 2.0 and KSHV LANA nucl 0.18.
Screening COc1cc(-c2nc(C=Nc3cccc(C(=O)O)c3)c(O)o2)cc(OC)c1OC returned BasE inh 4.8 and KSHV LANA nucl -0.92.
Screening CCOC(=O)c1c(-c2ccccc2)oc2ccc(OC(=O)Cc3n[nH]c(=O)c4ccccc34)cc12 returned BasE inh 5.8.
`CC1=C(c2ccccc2)[N+](=O)C2(CCCC2)N1[O-]` gave BasE inh 2.7.
C[C@@]12C(=O)OC(=O)[C@]1(C)C1CCC2O1 was read as BasE inh 0.1 and KSHV LANA nucl -0.16.
Screening CCN(CC(=O)NC1CCS(=O)(=O)C1)c1nc(-c2cccnc2)nc2sc3c(c12)CCCC3 (stereo unspecified) returned BasE inh 2.4.
O=S(=O)(Nn1cc(-c2ccccc2)[nH]c1=S)c1ccc2c(c1)OCCO2 was read as BasE inh 0.0.
For CC(=O)Nn1c(=O)[nH]c2ccccc2c1=O the results were BasE inh -1.6 and KSHV LANA nucl 0.92.
CCNC(=O)C(C)NC1CCN(C(C)C)CC1 (stereo unspecified) was read as BasE inh 2.1.
Screening CC1(C)C=C(C(=O)N2CCOCC2)C(C)(C)N1 returned BasE inh 0.4.
`C[n+]1ccn(CC(=O)c2ccccc2)c1` gave BasE inh 0.6 and KSHV LANA nucl -0.52.
`CC(C)OC(=O)c1cc(C(=O)c2cc(F)ccc2O)coc1=N` gave BasE inh -1.2.
O=C(CN1C(=O)C2CC=CCC2C1=O)OCc1cc(=O)n2c(n1)sc1ccccc12 (stereo unspecified) was read as BasE inh -0.9.
CCCCc1c(O)nc(SCCC(=O)O)[nH]c1=O was read as BasE inh 0.6.
Cc1cc(C)n(NC(=S)NC2CCCCC2)c(=O)c1C#N was read as BasE inh -1.2 and KSHV LANA nucl 0.46.
For CC1(C)CC(=O)C(C=NCC2CCN(C(=O)Nc3ccccc3)CC2)=C(O)C1 the results were BasE inh 0.3 and KSHV LANA nucl 0.49.
Screening CCc1ccc(-c2ncnn2-c2cccc(Cl)c2C)cc1 returned BasE inh -0.1.
Oc1ccccc1C=Nc1ccc2ncccc2c1 was read as BasE inh 2.7 and KSHV LANA nucl 0.46.
Screening Cc1cccc(NC(=S)NC(C)(C)C)c1 returned BasE inh 1.8&0.1 and KSHV LANA nucl -0.8&-0.99.
Screening O=C(CC1NCCNC1=O)NC1Cc2ccccc2C1 (stereo unspecified) returned KSHV LANA nucl -0.11.
`Cc1ccc(C(=O)COc2cc(C)nc3nncn23)cc1` gave BasE inh 1.5.
`CCOc1ccc(S(=O)(=O)NCC(=O)NC2CCCCC2)cc1` gave BasE inh -0.2.
COc1ccccc1C1=NN(C(=S)Nc2ccccc2)C(c2ccco2)C1 (stereo unspecified) was read as BasE inh -3.0 and KSHV LANA nucl 1.2.
Screening Cc1ccc(SCC(=O)N=C2NC(=O)CS2)cc1 returned BasE inh -0.2 and KSHV LANA nucl -0.84.
Screening CCCN1CCC(NC(=O)Nc2ccc(OC)c(OC)c2)CC1 returned BasE inh 0.6 and KSHV LANA nucl -0.62.
`Cc1cccc(OCCN)c1C` gave BasE inh -26 and KSHV LANA nucl -0.31.
CCc1nnc(NS(=O)(=O)c2ccc(NC(=O)C(C)C)cc2)s1 was read as BasE inh 5.4 and KSHV LANA nucl -0.45.
COC(=O)c1cc(NC2=NS(=O)(=O)c3ccccc32)cc(C(=O)OC)c1 was read as BasE inh -4.1 and KSHV LANA nucl 1.6.
Screening COC(=O)c1cc(OC(=O)Cc2coc3cc(OC)ccc23)cc(C(=O)OC)c1 returned BasE inh -0.6.
Screening COc1cc(OC)c(NC(=O)N2CCC3(CC2)N=C(c2ccc(C)c(C)c2)C(=O)N3)cc1Cl returned BasE inh -0.4 and KSHV LANA nucl -1.3.
For CC(C)=CCc1c(O)cc(O)c2c1OC(c1ccccc1)CC2=O (stereo unspecified) the results were BasE inh 2.6 and KSHV LANA nucl -0.86.
`CCOC(=O)C1SC(C)=NC1=O` (stereo unspecified) gave BasE inh 0.8.
NS(=O)(=O)c1ccc(NC=C2C(=O)OC3(CCCCC3)OC2=O)cc1 was read as BasE inh 0.9 and KSHV LANA nucl -1.5.
CCOC(=O)C1CCN(C(=O)C(C)n2ncn3cccc3c2=O)CC1 (stereo unspecified) was read as BasE inh 0.8 and KSHV LANA nucl -0.23.
For Cc1cc(-c2ccccc2)[nH]c(=O)c1S(C)(=O)=O the results were KSHV LANA nucl 0.63.
O=S1(=O)CCC(c2n[nH]c(=S)o2)C1 (stereo unspecified) was read as BasE inh 0.7.
`CNC(=O)C(Cc1ccccc1)N1C(=O)C2C3C=CC(C3)C2C1=O` (stereo unspecified) gave BasE inh 1.4 and KSHV LANA nucl -0.65.
Cc1ccccc1NC(=O)C(C)n1c(C(F)(F)F)nc2ccccc21 (stereo unspecified) was read as KSHV LANA nucl 0.084.
Screening CC(C)(C)c1cc(CCC(=O)O)cc(C(C)(C)C)c1O returned BasE inh 4.0 and KSHV LANA nucl -0.03.
Screening NS(=O)(=O)c1ccc(NC(=O)COC(=O)Cc2ccccc2)cc1 returned BasE inh 0.2.
Cn1c2c(c3ccccc31)C(C)(C)NC(C)(C)C2 was read as BasE inh -2.8 and KSHV LANA nucl 0.1.
`Cc1cc(Oc2cc(C#N)c(C#N)cc2N2CCOCC2)cc(C)c1Cl` gave BasE inh 3.7 and KSHV LANA nucl -0.32.
COc1ccc(C)cc1-n1c(N)c(C#N)c(C#N)c1-c1ccc(OC)c(OC)c1OC was read as BasE inh 3.1.
For CC(C)OC(=O)c1cc2ccc(O)cc2oc1=O the results were BasE inh -3.8 and KSHV LANA nucl 1.2.
Screening Cc1cccc(C)c1OCC(=O)N=Nc1c(O)n(CN2CCN(C)CC2)c2ccc(Br)cc12 returned BasE inh 1.8 and KSHV LANA nucl 0.058.
`CCc1ccc(NC(=O)Cc2ccc(NC3=NC4CS(=O)(=O)CC4S3)cc2)cc1` (stereo unspecified) gave BasE inh -14 and KSHV LANA nucl -0.49.
`O=C(OCC(=O)N1CCCC1=O)c1n[nH]c2ccccc12` gave BasE inh 0.4.
Cc1ccc(NS(=O)(=O)c2ccc3c(c2)n(C)c(=O)n3C)cc1 was read as BasE inh -0.2 and KSHV LANA nucl -0.37.
Cc1ccc(CNC(=O)Cc2noc3ccccc23)cc1 was read as KSHV LANA nucl -0.005.
For CC(=O)Nc1ccc(Cl)cc1C(F)(F)F the results were BasE inh 2.8 and KSHV LANA nucl -1.4.

The final 2 records of the part before lead into the next.
Cc1ccc(CNC(=O)Cc2noc3ccccc23)cc1 was read as KSHV LANA nucl -0.005.
For CC(=O)Nc1ccc(Cl)cc1C(F)(F)F the results were BasE inh 2.8 and KSHV LANA nucl -1.4.
Screening CCN(CC)CC(O)CN=C1NS(=O)(=O)c2ccccc21 (stereo unspecified) returned BasE inh 0.1 and KSHV LANA nucl -0.61.
Screening C/C(=N\OC(=O)c1ccc(Cl)cc1)c1ccc[nH]1 returned BasE inh 2.1 and KSHV LANA nucl -0.0005.
CN(C(=O)CSc1n[nH]c(=O)[nH]c1=O)c1ccccc1 was read as BasE inh 0.1.
`Cc1ccc(CSc2nnc3c(n2)[nH]c2ccccc23)cc1` gave KSHV LANA nucl 0.54.
Screening CC(=O)N1CCC2(CC1)C/C(=N\NC(=S)Nc1ccc(C)cc1)c1cc(O)ccc1O2 returned BasE inh 1.4 and KSHV LANA nucl -0.4.
CC(C)NC(=O)C1CC(c2ccccc2O)=NO1 (stereo unspecified) was read as BasE inh 0.5 and KSHV LANA nucl -0.85.
For COc1ccccc1-n1c(-c2ccncc2)n[nH]c1=S the results were BasE inh 1.1.
`CC(C)(C)c1ncc(C(=O)O)cn1` gave BasE inh -2.8 and KSHV LANA nucl 0.18.
Screening CC(C)c1cc(=O)n2[nH]cnc2n1 returned BasE inh 1.2 and KSHV LANA nucl 0.18.
For Cn1cnc(S(=O)(=O)N2CCN(c3ccccn3)CC2)c1 the results were BasE inh -0.3 and KSHV LANA nucl -0.052.
Screening Cc1ccc2nc(COC(=O)C(NS(=O)(=O)c3ccc4c(c3)OCCO4)C(C)C)cc(=O)n2c1 (stereo unspecified) returned BasE inh -1.2.
COc1ccc(S(=O)(=O)N2Cc3ccccc3CC2C(=O)N2CCOCC2)cc1OC (stereo unspecified) was read as BasE inh -1.5 and KSHV LANA nucl -0.098.
`O=[n+]1cc(-c2ccco2)n([O-])c2c1CCCC2` gave BasE inh 0.4.
N/C(=N\NC(=O)Nc1ccccc1)c1ccc(C(F)(F)F)cn1 was read as BasE inh 2.5 and KSHV LANA nucl -1.2.
Screening O=C(CSc1ncnc2c1nnn2Cc1ccc(F)cc1)NC1CCCC1 returned BasE inh -1.6 and KSHV LANA nucl 0.3.
`COc1ccc(NC(=O)N2CCc3ccccc3C2)cc1` gave BasE inh 5.2 and KSHV LANA nucl 0.36.
For NC(C(=O)O)C(c1ccc(O)cc1)C(F)F (stereo unspecified) the results were BasE inh 0.6.
COC(=O)C1=C(C)NC(C)=C(C(=O)OC)C1C(=O)OCC(=O)c1cc(C)n(C2CC2)c1C was read as BasE inh 1.6.
CCc1ccc(NC(=O)c2cc3ccccc3oc2=O)cc1 was read as BasE inh 2.5.
For COc1ccc(-c2nnc(SCC(=O)Nc3cc(C(C)(C)C)nn3-c3ccccc3)o2)cc1 the results were BasE inh 3.4.

4 entries out of the list, arranged by heavy-atom count, low to high:
`COc1ccc(NC(=O)N2CCc3ccccc3C2)cc1` gave BasE inh 5.2 and KSHV LANA nucl 0.36.
CCc1ccc(NC(=O)c2cc3ccccc3oc2=O)cc1 was read as BasE inh 2.5.
N/C(=N\NC(=O)Nc1ccccc1)c1ccc(C(F)(F)F)cn1 was read as BasE inh 2.5 and KSHV LANA nucl -1.2.
For COc1ccc(-c2nnc(SCC(=O)Nc3cc(C(C)(C)C)nn3-c3ccccc3)o2)cc1 the results were BasE inh 3.4.
